CBX7 AlphaScr – CBX7 inhibition, primary AlphaScreen; AID 1224903; AlphaScreen His6-CBX7 / biotin-H3K27me3 peptide binding; active compounds read low; normalised signal (fraction of DMSO) (test concentration not listed); 66,000 compounds, 1.1% hits; in the data active = normalised signal below about 0.5;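 also: 100 nL library stock added to about 20 µL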
Target sequence (O95931 whole entry, looked up): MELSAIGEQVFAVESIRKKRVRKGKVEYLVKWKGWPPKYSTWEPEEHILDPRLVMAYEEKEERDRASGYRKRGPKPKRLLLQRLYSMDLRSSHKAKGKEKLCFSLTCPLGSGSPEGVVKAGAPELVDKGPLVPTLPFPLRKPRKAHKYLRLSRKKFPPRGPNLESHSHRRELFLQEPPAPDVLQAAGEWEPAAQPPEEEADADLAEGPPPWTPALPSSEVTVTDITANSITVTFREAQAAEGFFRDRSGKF
CBX7 AlphaScr z-score – second read-out of CBX7 AlphaScr, no call of its own (marks repeat the call); z-score; measured here: z-score of CBX7 signal; some inactives read as strong as hits; reference of the scale not given here;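 same signal on another scale; lower means less binding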
Numbers without * were called inactive. Some of the compounds tested, so the mix of outcomes need not match the whole.

The opening three entries, to show the layout:
SMILES	CBX7 AlphaScr	CBX7 AlphaScr z-score
O=C(O)CCC(=O)N1CCc2cc(S(=O)(=O)NCC3CCCO3)ccc21 (stereo not drawn)	1.1	1.5
CCOc1ccc(NC(=O)COc2ccc(N3CC(C(N)=O)CC3=O)cc2)cc1 (stereo not drawn)	1	0.48
COc1ccc(N2C(=O)C3C4c5ccccc5C(CO)(c5ccccc54)C3C2=O)cc1 (stereo not drawn)	0.92	-2.3

All compounds of this part, repeating the preview:
SMILES	CBX7 AlphaScr	CBX7 AlphaScr z-score
O=C(O)CCC(=O)N1CCc2cc(S(=O)(=O)NCC3CCCO3)ccc21 (stereo not drawn)	1.1	1.5
CCOc1ccc(NC(=O)COc2ccc(N3CC(C(N)=O)CC3=O)cc2)cc1 (stereo not drawn)	1	0.48
COc1ccc(N2C(=O)C3C4c5ccccc5C(CO)(c5ccccc54)C3C2=O)cc1 (stereo not drawn)	0.92	-2.3
COc1cccc(NC(=O)CCC(=O)Nc2ccc3nc(N4CCOCC4)cc(C)c3c2)c1	1	0.47
CCC1CCCCN1CCCNC(=O)c1csc2c1CCCCC2 (stereo not drawn)	1	0.24
Cc1ccc(-c2nc(CS(=O)(=O)CC(=O)NC3CCCC3)c(C)o2)cc1	1	0.041
COc1ccc(-c2cc3nc(C)c(CCC(=O)Nc4ccc(Cl)cn4)c(C)n3n2)c(OC)c1	1.1	1.6
O=C(Nc1ccc(F)cc1F)c1cc(-c2cccc(Cl)c2)on1	1	-0.025
Cc1ccc(Nc2cc(C(=O)NCc3ccccc3)c3ccccc3n2)cc1C	1.1	1.6
CNS(=O)(=O)c1cc(-c2nnc(Nc3ccccc3C)c3ccccc23)ccc1C	0.81	-3.5
Oc1ccccc1-c1cc(C(F)(F)C(F)F)nc(-c2ccccc2)n1	0.98	-0.18
COc1ccc(C(=O)Nc2c3c(nn2-c2cc(C)cc(C)c2)CSC3)cc1	0.9	-1.9
COc1ccc(NCc2nc3ccccc3n2CCOc2ccc(C)cc2)cc1	0.63	-14
COc1cccc(NC(=O)c2ccc(CNc3c(NC4CCCC4)c(=O)c3=O)cc2)c1	0.86	-1.2
O=c1ccnc2c1ccc1[nH]snc12	0.89	-1.2
CCc1ccc(CNC(=O)c2cc(=O)[nH]c3ccc(S(=O)(=O)N4CCCCCC4)cc23)cc1	1	0.47
Cc1ccc(-c2noc(CCC(=O)N(C)Cc3ccccc3)n2)cc1	0.83	-0.22
CCOC(=O)c1c(NC(=O)COc2ccc(Cl)cc2C)sc2c1CCCCC2	1.1	2.6
Fc1ccccc1COc1ccc(-c2nnn(Cc3ccccc3F)n2)cc1	1.4	18
CCOC(=O)c1sc2nc(C)n(CC(=O)Nc3ccc(C)c(F)c3)c(=O)c2c1C	1	-0.15
CCOc1ccc(Nc2cc(C(=O)NC(C)CC)c3ccccc3n2)cc1 (stereo not drawn)	1	-0.041
Cc1ccc(CNC(=O)CN2C(=O)CSc3ccc(S(=O)(=O)N4CCOCC4)cc32)cc1	0.88	-1.4
CCc1ccc2nc(N3CCC(C(=O)NC(C)C)CC3)sc2c1	1.1	0.22
CCn1c(=O)cc(OCC(=O)Nc2ccc(C(C)C)cc2)c2ccccc21	0.79	-3.4
COc1ccccc1N1CCN(C2CC(=O)N(c3ccccc3)C2=O)CC1 (stereo not drawn)	1	0.42
CC1CC(C)CN(CCCNC(=O)Cn2nc(Cc3cccnc3)c3ccccc3c2=O)C1 (stereo not drawn)	1	0.062
O=C(NC1CCCC1)C1c2cccn2CC(=O)N1Cc1ccc(Cl)cc1 (stereo not drawn)	0.94	-1.5
COCCCNC(=O)C1CC(=O)N(CCc2ccccc2)C1 (stereo not drawn)	1	0.36
CCOC(=O)c1cnc2ccc(OC)cc2c1NCCN1CCOCC1	1.1	0.82
CCOC(=O)CSc1nnc(-c2ccccc2OC)o1	1.2	1.5

Record cards, as listed above. Order of values: CBX7 AlphaScr	CBX7 AlphaScr z-score
CC1CC(C)CN(CCCNC(=O)Cn2nc(Cc3cccnc3)c3ccccc3c2=O)C1 (stereo not drawn) reads 1	0.062
CCc1ccc2nc(N3CCC(C(=O)NC(C)C)CC3)sc2c1 reads 1.1	0.22
Cc1ccc(CNC(=O)CN2C(=O)CSc3ccc(S(=O)(=O)N4CCOCC4)cc32)cc1 reads 0.88	-1.4
CCOC(=O)c1cnc2ccc(OC)cc2c1NCCN1CCOCC1 reads 1.1	0.82
CCOC(=O)CSc1nnc(-c2ccccc2OC)o1 reads 1.2	1.5

(further entries)
SMILES	CBX7 AlphaScr	CBX7 AlphaScr z-score
Cc1nc2[nH]onc2c2nccc(=O)c12	1.1	1.4
O=C(Cn1cnc2sc3c(c2c1=O)CCCC3)N1CCC(Cc2ccccc2)CC1	1	0.95
Cc1oc(-c2cccc(Cl)c2)nc1CN1CCCC(C(=O)NC2CCCC(C)C2C)C1 (stereo not drawn)	1	0.064
Cc1ccc(NC(=O)c2cc(-c3ccc4c(c3)OCO4)on2)cc1C	1.2	1.8
O=C1CC(N2CCN(c3ncccn3)CC2)C(=O)N1c1ccc(Cl)cc1 (stereo not drawn)	1	0.38
N=c1n(CCOc2ccccc2)c2ccccc2n1CCN1CCCCC1	1.1	3.2
Cc1ccc(-n2ncc(C(=O)Nc3ccccc3Br)c2C2CCNCC2)cc1	0.98	-0.3
CCCCNC(=O)c1cc(-c2ccc(Br)cc2)on1	1	0.98
COc1ccc(CCNC(=O)CCCCCn2c(=O)[nH]c3ccsc3c2=O)cc1OC	1	0.23
CCOC(=O)c1[nH]c2c(c1Cc1ccccc1)C(=O)CC(c1ccc(Cl)cc1)C2 (stereo not drawn)	0.79	-2.8
COc1ccccc1NC(=O)C(Cc1ccccc1)NS(=O)(=O)c1cccc2cccnc12 (stereo not drawn)	0.9	-0.86
CCOc1ccc(CCNC(=O)CS(=O)(=O)Cc2nc(-c3ccccc3C)oc2C)cc1	0.88	-3.2
CC1CCN(S(=O)(=O)c2ccc3nc(-c4ccccn4)cc(C(=O)NCC4CCCO4)c3c2)CC1 (stereo not drawn)	1	0.29
N#Cc1nc(COc2ccccc2F)oc1N1CCN(Cc2ccccc2)CC1	0.46*	-9.9*
CC1=Nc2cc(C(=O)NCCCN3CCCC3=O)ccc2Sc2ccc(Cl)cc21	0.93	-1.1
COc1ccc(CCNC(=O)c2ccc3c(c2)N(Cc2ccc(F)cc2)C(=O)CS3)cc1OC	0.83	-1.6
O=C(Nc1ccc2nc3n(c(=O)c2c1)CCCCC3)c1cnccn1	0.91	-2.1
Cc1ccc(NC(=O)CN(C)S(=O)(=O)c2ccc3c(c2)CCC(=O)N3)cc1C	1.1	2
COc1ccc(Nc2nc(C)nc3sc(C)c(C)c23)c(OC)c1	1	1.2
COc1ccc(Cc2noc(-c3cc(-c4ccc(F)cc4)nc4ccccc34)n2)cc1OC	1.1	1.9
Cc1ccc(-c2nnc(NCc3nc4ccccc4[nH]3)c3ccccc23)cc1S(=O)(=O)N(C)C	1.1	2.1
COc1ccc2nc(N3CCCC(C(=O)NCc4ccc5c(c4)OCO5)C3)sc2c1 (stereo not drawn)	1	0.65
Cc1ccc(C(=O)Nc2sc3c(c2C(=O)N2CCCCCC2)CCC3)cc1	1	-0.039
COc1ccc(OC2C(=O)N(Cc3ccc4c(c3)OCO4)C2c2sccc2C)cc1 (stereo not drawn)	1	1.1
Cc1ccc2nc(Nc3ncc4c(n3)CC(C)(C)CC4=O)nc(C)c2c1	1	0.16
Cc1ccc(-c2cc(C(=O)NCc3cnn(C)c3C)c3cc(Br)ccc3n2)cc1	1.2	2.1
CC(=O)C12c3ccccc3C(c3ccccc31)C1C(=O)N(c3cccc(Cl)c3)C(=O)C12 (stereo not drawn)	0.75	-2.4
O=C(CN1C(=O)COc2ccc(Cl)cc21)N1CCc2ccccc2C1	0.69	-5.3
O=C1CN(C(=O)Cc2ccc(F)cc2)C(c2ccc(F)cc2)c2cc(Cl)ccc2N1 (stereo not drawn)	0.79	-3.8
CCOc1ccc2nc(SCC(=O)Nc3ccccc3C(=O)O)sc2c1	1	0.9

The last 4 compounds of the section above open the next one.
SMILES	CBX7 AlphaScr	CBX7 AlphaScr z-score
CC(=O)C12c3ccccc3C(c3ccccc31)C1C(=O)N(c3cccc(Cl)c3)C(=O)C12 (stereo not drawn)	0.75	-2.4
O=C(CN1C(=O)COc2ccc(Cl)cc21)N1CCc2ccccc2C1	0.69	-5.3
O=C1CN(C(=O)Cc2ccc(F)cc2)C(c2ccc(F)cc2)c2cc(Cl)ccc2N1 (stereo not drawn)	0.79	-3.8
CCOc1ccc2nc(SCC(=O)Nc3ccccc3C(=O)O)sc2c1	1	0.9
O=C(NCc1ccccc1)c1cc(-c2cccc(Cl)c2)on1	1.3	2.3
COc1ccc(OC)c2[nH]c(=O)c(CCNC(=O)CC3CCCCC3)cc12	0.99	-0.62
Cn1nc(C(F)(F)F)cc1C(=O)NCc1cccnc1	0.97	-0.34
CCOc1ccc(-n2nc(C(=O)Nc3ccccc3C(=O)OC)c3ccccc3c2=O)cc1	1.1	1.6
COc1ccc(-c2nn(C)c(=O)c3ccccc23)cc1CNS(C)(=O)=O	0.99	-0.24
CC(C)c1ccc(Nc2c(-c3ccc(N(C)C)cc3)nc3ncccn23)cc1	1.1	1.6
CC1CN(CC(O)COc2ccccc2)C(C)CC1=O (stereo not drawn)	0.95	-0.13
O=C(Nc1ccc(Cl)cc1)c1cccnc1Nc1ccc(F)cc1	0.8	-0.72
Cc1cccc(C)c1Nc1c(-c2cccs2)nc2cccc(C)n12	1	1
COc1ccc(Cl)cc1C(=O)Nc1cccc(-c2nc3cc(Cl)ccc3o2)c1C	1.1	2.3
Cc1ccc(-c2nn(CC(=O)N3CCCCC3)c(=O)c3ccccc23)cc1	1.1	1.8
COc1ccccc1NC(=O)Cn1cnc2sc(C(=O)NCc3cccnc3)c(C)c2c1=O	0.92	-0.86
COc1ccc(OCc2nc(C#N)c(N3CCOCC3)o2)cc1	1	0.11
CC(=O)Nc1cccc(NC(=O)Cn2c(C)cc3ccccc3c2=O)c1	1	0.78
Cc1cc(OCC(=O)Nc2ccc(-c3nc4ccccc4[nH]3)cc2)cc(C)c1Cl	1	0.67
COCCCNC(=O)CCc1c(C)nc2c(-c3ccccc3)c(C)nn2c1C	1.1	1.2
Cc1nc2ncnn2c(C)c1CCC(=O)Nc1ccc(F)c(Cl)c1	1.1	2.2
COc1ccc(CN2C(=O)c3cccnc3C2Nc2ccc(OC)c(Cl)c2)cc1 (stereo not drawn)	0.16*	-11*
C=CCNC(=O)c1ccc2c(c1)N(Cc1ccc(Cl)cc1)C(=O)c1ccccc1S2	0.59	-8.2
COc1ccc(CNC(=O)Cc2nn(C)c(=O)c3ccccc23)cc1	0.86	-2
CCOc1ccc(CCNC(=O)Cn2nnc(-c3ccccc3)n2)cc1OCC	1	-0.007
CCc1ccc(NC(=O)c2cc3c(s2)-c2ccccc2OC3)cc1	1.1	7
CCOC(=O)c1cnc2c(C)cc(C)cc2c1Nc1ccc(C)c(Cl)c1	1.2	1.6
COc1ccc(N2Cc3cccc(C(=O)Nc4cc(Cl)c(OC)cc4OC)c3C2=O)cc1	0.62	-9.2
NC(=O)C1(N2CCCCC2)CCN(C(=O)CSc2nc3ccccc3o2)CC1	1	0.43
OCCN1CCN(c2nc3ccccc3nc2C(F)(F)F)CC1	1	0.13
Cc1cccc(N2CCN(C(=O)CC(C)(C)CC3=NS(=O)(=O)c4ccccc4N3)CC2C)c1 (stereo not drawn)	0.92	-2.2
Cc1ccc2nc(Nc3nc4c(c(=O)[nH]3)CCCC4)nc(C)c2c1	0.88	-0.13
Cc1ccccc1OCC(O)Cn1c(=N)n(CCN2CCOCC2)c2ccccc21 (stereo not drawn)	0.87	-1.9
COc1ccc(OC)c(NC(=O)c2n[nH]c(=O)c3ccccc23)c1	1	0.77
COc1cc2c(C(=O)N(C)c3ccccc3Cl)cn(CC(C)C)c(=O)c2cc1OC	0.98	-0.018
CCN1CCN(C(c2cccs2)C(C)NS(C)(=O)=O)CC1 (stereo not drawn)	1.1	1.2
CC(NS(=O)(=O)c1ccccc1)C(c1cccs1)N1CCN(c2ccccc2)CC1 (stereo not drawn)	0.84	-3.9
CCOC(=O)N1CCC(Nc2c(NC3CCCc4ccccc43)c(=O)c2=O)CC1 (stereo not drawn)	1	0.34
COC(=O)Cc1nc(Nc2ccc(F)c(Cl)c2)c2c(C)c(C)sc2n1	1	1.5
Cc1cccc(N(C)S(=O)(=O)c2ccc3[nH]cc(C(=O)NCC4CCCO4)c(=O)c3c2)c1 (stereo not drawn)	1.1	1.4
CCCCNC(=O)c1cn(C)c2ccc(S(=O)(=O)N3CCC(C)CC3)cc2c1=O	1	0.46
Cc1cc(Br)ccc1NC(=O)c1cnc2scc(C)n2c1=O	1.1	3
CCOC(=O)C1CCN(C(=O)c2cc3c(C)nn(-c4ccccc4)c3s2)CC1	0.96	-0.74
COc1ccc(CCNC(=O)c2cc(-c3ccccc3)nc3ccccc23)cc1OC	1.1	1.3
O=C(CCn1nc(-c2ccc(Cl)cc2)c2ccccc2c1=O)N1CCCCC1	1.1	1.4
Cc1cccc(-c2nc(C(=O)NCc3ccccc3)c(C)o2)c1	1	0.046
Cc1cccc(-n2cc(-c3ccccc3)nc2SCC(=O)NCCc2ccccc2)c1	0.89	-3.5
CCOC(=O)CNC(=O)C(Cc1ccccc1)NS(=O)(=O)c1ccc2c(c1)CCC(=O)N2 (stereo not drawn)	1.4	7.5
COCCN1Cc2cccc(C(=O)Nc3ccc(OC)cc3OC)c2C1=O	1	0.032
CCSc1oc(-c2ccc(F)cc2)nc1S(=O)(=O)c1ccc(F)cc1	1.1	0.1
COc1cccc(-c2cc(C(=O)Nc3cc(C)cc(C)c3)c3ccccc3n2)c1	1	1.6
